Compound activity from PubChem BioAssay.
VACV mCherry inh – vaccinia inhibition (mCherry reporter) | 310,000 compounds, 0.63% hits | Vaccinia virus mCherry reporter infection, fluorescence; about a quarter of the inactives have no number | Potency, µM (top dose mostly 36.5 µM), inactives show at the top dose activity change, negative = inhibition, actives largely listed as inhibitors; active = well fitted inhibition curve with a large enough effect; inconclusive = small, poorly fitted or top-dose-only effect; inactive = no such curve, though single readings can be large or run the other way; tested in A549 cells; note: nearly all actives have a fitted effect of over 35% in size; inactives centre near -10
Vaccinia Venus – vaccinia inhibition (Venus reporter). Vaccinia virus Venus reporter expression, fluorescence. Potency, µM (titrated, usually from 36.5 µM), for inactives: top-dose activity change, negative = inhibition, most hits filed as inhibitors. 330,000 compounds, 0.46% hits. AID 720580; active means well fitted inhibition curve with a large enough effect; inconclusive means small, poorly fitted or top-dose-only effect; inactive means no such curve, though single readings can be large or run the other way; tested in A549 cells; note: nearly all actives have a fitted effect of over 30% in size; inactives centre near -10
* marks the source's active call; other numbers are inactive results; i = inactive; ? = inconclusive; · = not tested or not shown; [ ] = remark or other dose. % is set by controls: 0 for no effect and ±100 for the full control effect; potency is the fitted concentration of half-maximal effect. The order is random; 0.86% or so of the library scored in one or more.

The opening 2 records, to show the layout:
SMILES	VACV mCherry inh	Vaccinia Venus
Fc1ccc(CNC(=S)Nc2ccc(Cl)cc2)cc1	-3.5%[1.46 µM]	?
COCCNC(=O)c1cccc(-n2c(C)nc3cccnc32)c1	-12.2%	-9.1%

The listing (from the top)
SMILES	VACV mCherry inh	Vaccinia Venus
Fc1ccc(CNC(=S)Nc2ccc(Cl)cc2)cc1	-3.5%[1.46 µM]	?
COCCNC(=O)c1cccc(-n2c(C)nc3cccnc32)c1	-12.2%	-9.1%
CC(C)CCNC(=O)Nc1ccc2c(c1)N(Cc1ccccc1)C(=O)c1ccccc1S2	-9.8%	-23.8%
CC(C)(C)N1C(=O)Cc2c1nc(N)c1c(N)nc(N3CCCCC3CO)c(C#N)c21 (stereo not drawn)	i	-17.0%
CCOC(=O)c1c(S(=O)(=O)N2CCCC(C(=O)Nc3ccc(C)cc3C)C2)c(C)n(CC)c1C (stereo not drawn)	-15.7%	-5.6%
CCCCOc1cccc(-c2nnc(NC(=O)CSc3ccc(C)cc3)s2)c1	-13.1%	-4.2%
CCc1cc(=O)oc2cc(C)cc(OCC(=O)NC(Cc3ccc(Cl)cc3)C(=O)O)c12 (stereo not drawn)	-2.8%	-5.6%
Cc1cccc(NC(=O)CN2CCC(C(=O)c3ccc4c(c3)OCCO4)CC2)c1	?	-17.3%
Cc1ccccc1-c1cc(C(=O)NCc2ccc3c(c2)OCO3)n(CC2CC(c3cccnc3)=NO2)n1 (stereo not drawn)	i	?
CN(C)C(=O)c1cccc(-c2cccc(-c3nc(C(=O)NCc4ccccc4)cc4c3[C@@H](CCO)N(S(=O)C(C)(C)C)C4)c2)c1 (stereo partly drawn)	11.2%	-10.7%
CCc1ccc(OCC(=O)NC(=S)Nc2ccc(Br)c(C)n2)cc1	-10.0%	-7.4%
C=CCNC(=O)c1cc(C(=O)C(C)c2ncc(C(F)(F)F)cc2Cl)c[nH]1 (stereo not drawn)	i	-15.9%
Cn1ncc(C(=O)N2CCN(c3ccccc3F)CC2)c1C1CCN(C(=O)OC(C)(C)C)CC1	-7.4%	-11.1%
O=C(CSc1ncn[nH]1)Nc1ccc(Cl)c(S(=O)(=O)N2CCOCC2)c1	0.0%	-14.5%
Cc1nc(C)c(CCNS(=O)(=O)c2ccc(C)c(C)c2)s1	-14.8%	-1.7%
CCN(Cc1ccncc1)Cc1ccc2c(c1)CN(C(=O)c1cccc(-n3nc(C)cc3C)c1)CCO2	-10.9%	-2.4%
COC(=O)c1cccc(NC(=O)CSc2nnc(C3CC3)n2C)c1	-13.6%	-5.7%
Cc1cccc(NC(=O)COC(=O)c2nn(C)c(=O)c3ccccc23)c1C	-10.6%	-5.3%
CC(=O)N1CCN(S(=O)(=O)c2cccc(C(=O)N3CCN(S(=O)(=O)c4c(C)c(C)cc(C)c4C)CC3)c2)CC1	i	?
C/C(=C\C(=O)c1ccc(Br)cc1)N1CCCCC1	-6.5%	-2.2%
O=C(NNC(=O)c1cc(Cl)ccc1O)c1cccs1	?	-5.0%
COc1ccc(Oc2nc3c(C)cccn3c(=O)c2/C=C(\C#N)c2nc3ccccc3[nH]2)cc1	9.6%	3.9%
O=C(Cn1cc(S(=O)(=O)Cc2cccc(Cl)c2)c2ccccc21)NCCc1ccccc1	-17.0%	-17.7%
CCOc1ccc(NC(=O)c2sc3nc4c(cc3c2N)CN(Cc2ccccc2)CC4)cc1	-1.4%	2.1%
CCOc1ccc2[nH]c(=O)c(CN(CC3COCCO3)C(=O)c3ccco3)cc2c1 (stereo not drawn)	-9.4%	-10.7%
Cc1csc(NC(=O)[C@@H](NC(=O)c2ccccc2)C(C)C)n1	-8.0%	-8.8%
O=C(Oc1ccccc1)N1CCOCC1	-14.0%	-6.5%
O=C(CN1CCN(S(=O)(=O)c2ccc(Cl)cc2)CC1)NC1CC1	-6.1%	-12.8%
COc1ccc(NC(=O)c2oc3ccccc3c2NC(=O)C23CC4CC(CC(C4)C2)C3)c(OC)c1	1.3%	6.9%
COc1ccc(NC(=O)c2csnn2)cc1Cl	-16.1%	-12.3%
O=C(C1CCCCC1)N1C[C@@H](O)[C@H](n2cc(C3CC3)nn2)C[C@@H]1c1ccccc1	-6.0%	-2.7%
Cc1ccc(NC(=O)c2nc[nH]c2C(=O)NCCN(CCNC(=O)c2[nH]cnc2C(=O)Nc2ccc(C)cc2)CCNC(=O)c2[nH]cnc2C(=O)Nc2ccc(C)cc2)cc1	-16.5%	?
COc1ccc(C2=C(C)C(N3CCC(C(=O)Nc4ccc(F)cc4C)CC3)=NS2(=O)=O)cc1	-3.6%	6.8%
Cc1ccccc1-n1ncc2c(SCC(=O)NC3CCCC3)ncnc21	-21.2%	-19.8%
C(=N\Nc1nc2ccccc2s1)/c1ccco1	-10.9%	-26.1%
O=C(NC(C(=O)c1ccccc1)n1c(=O)cc[nH]c1=S)c1ccccc1 (stereo not drawn)	-9.7%	-5.9%
Cc1cccc(C)c1-n1nnnc1C(c1cccc2ccccc12)N1CCC2(CC1)C(=O)NCN2c1ccccc1 (stereo not drawn)	19.7%	5.5%
O=C1CC(C(=O)N2CCN(c3ccc(F)cc3)CC2)CN1CCc1ccccc1 (stereo not drawn)	-19.6%	-11.5%
Cc1cccc(NC(=S)NCc2cccs2)c1C	-1.9%	-18.4%
CCOC(=O)c1ccc2c(c1)N(Cc1ccc(F)cc1Cl)C(=O)c1ccccc1S2	-11.6%	-9.8%
O=C(Nc1cnn(Cc2ccc(Cl)cc2)c1)c1cccs1	-16.0%	-10.1%
Cc1cccc(NC(=O)CNC(=O)c2ccc(S(=O)(=O)NCc3ccco3)cc2)c1C	i	-7.0%
C[C@H](CO)N1C[C@H](C)[C@@H](CN(C)Cc2ccccc2)Oc2c(NC(=O)Cc3ccccc3)cccc2C1=O	-8.6%	?
O=C(N/N=C/c1ccc(OC(=O)c2cccc(F)c2)cc1)c1cccnc1	-13.3%	-8.9%
CCCCc1ncc(CN2CCC(CC3CCCCO3)(C(=O)OCC)CC2)[nH]1 (stereo not drawn)	i	-8.9%
c1ccc2c(c1)ccn1c(Cc3ccsc3)c(C3CCCCC3)nc21	i	10.9%
C[C@H]1CN([C@@H](C)CO)C(=O)CCCn2nncc2CO[C@H]1CN(C)C(=O)NC1CCCCC1	-0.3%	-13.7%
COc1ccc(C(=O)NCCSCc2ccco2)cc1OC	-9.6%	3.4%
COCCNC(=O)c1c(N)n(CCC2=CCCCC2)c2nc3ccccc3nc12	-29.1%	-13.6%
O=C(CCS(=O)(=O)c1ccccc1)Nc1ccc(S(=O)(=O)Nc2nccs2)cc1	-0.7%	-15.7%
O=C1c2ccccc2S(=O)(=O)N1Cc1nnc(-c2ccccc2Br)o1	-8.9%	-12.4%
COC(=O)C1=C(O)C2(C(=O)O)CC(C(=O)OC)=C(O)C(C(=O)O)(C1)C2	i	-4.1%
Cc1ccc(CN2CCN(C3CCN(C(=O)Nc4ccccc4C(F)(F)F)CC3)C(=O)C2=O)cc1	-3.8%	-2.8%
N#Cc1ccc(C(=O)N2CCCCC2c2cc(C(=O)Nc3ccc4c(c3)OCO4)no2)cc1 (stereo not drawn)	2.6%	-4.9%
CCCS(=O)(=O)NC(=O)C1(C)CCN(C(=O)CSc2ccccc2)C1 (stereo not drawn)	i	-2.5%
O=C(OCC(=O)N1CCOCC1)c1cc(=O)[nH]c2ccccc12	-8.1%	-13.4%
O=c1c(S(=O)(=O)c2ccccc2)cn(Cc2cccc(F)c2)c2cc(N3CCCC3)c(F)cc12	-4.0%	-8.6%
O=C(CCC1CCN(Cc2ccc(Cl)cc2)CC1)NC1CC1	-12.4%	-3.9%
Cc1c(CC(=O)O)c(=O)oc2cc3occ(-c4ccc(F)cc4)c3cc12	-11.1%	-7.4%
CN(C)C(=O)c1nc(C#N)c(N(C)C)o1	i	-13.6%
(more compounds)
SMILES	VACV mCherry inh	Vaccinia Venus
CS(=O)(=O)N(CC(=O)N1CCOCC1)Cc1ccccc1	i	-7.0%
COc1ccccc1N1CCN(c2cc(=O)n(-c3ccc(Br)cc3)c(=O)[nH]2)CC1	-7.8%	-0.1%
CCc1ccc2[nH]c(C(=O)N(C)c3ccc(F)cc3F)cc2c1	-12.4%	-17.3%
COc1ccc(N2CCN(C(=O)c3cc4c(=O)n(Cc5ccccc5)ccc4nc3C)CC2)cc1	3.1%[7.34 µM]	10.1%[7.34 µM]
CC(=O)Nc1cncc(-c2cccc(S(C)(=O)=O)c2)n1	-6.0%	-8.7%
Cc1cc(NS(=O)(=O)c2ccc(NC(=O)COc3cc(C)c(Br)cc3C(C)C)cc2)no1	-9.0%	-7.5%
C[C@]12CC[C@@H]3c4ccc(O)cc4CC[C@H]3[C@@H]1CC[C@@H]2OC(=O)CCC1CCCC1	-19.7%	-14.4%
O=C1C(=O)c2ccccc2C(O)=C1c1ccccc1F	i	-2.7%
COc1ccc(C(=O)Nc2ccccc2C(=O)Nc2ccncc2)cc1	-25.3%	-20.6%
C1CC2OC2CC1C1CO1 (stereo not drawn)	-0.4%	-13.3%
OCC1OC(c2ccc(OCc3ccccc3)cc2OCc2ccccc2)C(O)C1O (stereo not drawn)	i	-18.2%
O=c1cc(N2CCCCC2)c(-c2ccccc2)nn1Cc1ccccc1	-16.4%	-17.7%
CCOC(=O)c1csc(NC(=O)c2ccc(S(=O)(=O)N(C)C)cc2)n1	-25.6%	-11.5%
NC(=O)c1ccc(C23CC4CC(CC(C4)C2)C3)o1	i	-8.7%
COc1ccc(/C=C/C(=O)NC(=S)Nc2ccc(S(=O)(=O)Nc3cc(OC)ncn3)cc2)cc1	i	2.8%
Cn1c(=O)c2cc(NC(=O)NCCc3cccs3)ccc2n1Cc1ccccc1	1.0%	0.9%
O=C(COc1cc(Cl)c(Cl)cc1Cl)N1CCN(c2ccccn2)CC1	i	-5.0%
COC(=O)c1ccc(C(=O)OCCCc2nc3ccc(N)cc3[nH]2)cc1	·	-6.7%
O=C1CC(N2CCN(Cc3ccc4c(c3)OCO4)CC2)C(=O)N1c1ccccc1 (stereo not drawn)	i	-13.2%
COC(=O)C1=C(c2ccc(Cl)c(C(F)(F)F)c2)C[C@@H]2CC[C@H]1N2C(=O)NCCOc1ccccc1	-10.5%	?
Cc1ccccc1Nc1nc(N)nc(COC(=O)[C@@H](NC(=O)c2c(F)cccc2F)C(C)C)n1	-15.1%	-15.4%
CCCCOC(=O)c1cc(=O)[nH]c(=O)[nH]1	i	2.6%
O=C(Nc1cccc(S(=O)(=O)N2CCCCCC2)c1)c1cc(=O)c2ccccc2o1	-29.0%	-24.0%
COc1ccc(NC(=O)CCNS(=O)(=O)c2ccc3c(c2)CCC(=O)N3)cc1	-8.9%	-3.7%
CCN(CC)C(=O)N1c2ccccc2C=Cc2ccccc21	·	?
CCc1cccc(-n2nnc(-c3nc(-c4ccc5c(c4)OCO5)no3)c2C)c1	-8.3%	-9.8%
CC(C)CN1CCNC(=O)C1CC(=O)NCCc1ccc(C(F)(F)F)cc1 (stereo not drawn)	-33.2%	-3.8%
Cc1csc(SCC(=O)Nc2nc3ccccc3s2)n1	·	-16.4%
COc1ccc2c(c1)[C@H]1[C@H](CO2)[C@H](c2ccccc2)[C@]2(C)C(=O)Nc3cc(C)ccc3C(=O)N12	-22.4%	?
COC(=O)c1cc(-c2c(C)nn(-c3ccccc3)c2C)n[nH]1	·	-20.1%

A section from the list above, for reference:
SMILES	VACV mCherry inh	Vaccinia Venus
CCc1cccc(-n2nnc(-c3nc(-c4ccc5c(c4)OCO5)no3)c2C)c1	-8.3%	-9.8%
CC(C)CN1CCNC(=O)C1CC(=O)NCCc1ccc(C(F)(F)F)cc1 (stereo not drawn)	-33.2%	-3.8%
Cc1csc(SCC(=O)Nc2nc3ccccc3s2)n1	·	-16.4%
COc1ccc2c(c1)[C@H]1[C@H](CO2)[C@H](c2ccccc2)[C@]2(C)C(=O)Nc3cc(C)ccc3C(=O)N12	-22.4%	?
COC(=O)c1cc(-c2c(C)nn(-c3ccccc3)c2C)n[nH]1	·	-20.1%

A draw from above in order of number of heavy atoms, descending:
SMILES	VACV mCherry inh	Vaccinia Venus
O=C(Nc1cccc(S(=O)(=O)N2CCCCCC2)c1)c1cc(=O)c2ccccc2o1	-29.0%	-24.0%
COC(=O)c1ccc(C(=O)OCCCc2nc3ccc(N)cc3[nH]2)cc1	·	-6.7%
COC(=O)c1cc(-c2c(C)nn(-c3ccccc3)c2C)n[nH]1	·	-20.1%

(listing goes on)
SMILES	VACV mCherry inh	Vaccinia Venus
O=C(O)CCC(=O)NNc1ccccc1[N+](=O)[O-]	-10.9%	-5.7%
COC12NC(=O)N(C)C1(OC)C(=O)N(C)C(=O)N2C (stereo not drawn)	-13.6%	6.2%
Cc1ccc(NC(=O)c2ccco2)c(NC(=O)c2cccs2)c1	i	-18.1%
COc1ccc(CN2CC(C(=O)NCCC3=CCCCC3)CC2=O)cc1 (stereo not drawn)	-1.5%	-1.4%
CN(Cc1nnc(-c2ccc(F)cc2)o1)c1ccccc1	-10.3%	-6.9%
C/C(=N\NC(=O)c1ccccc1O)C1CC1	?	0.6%
O=C(O)CCC(=O)NNC(=O)CCC(=O)Nc1ccccc1	3.3%	-14.4%
Cc1cc(C)c(C)c(Cn2c(CO)nc3ccccc32)c1C	·	-9.9%
CCCN(CC(=O)Nc1ccccc1OC)C(=O)CNC(=O)c1ccc(C)s1	-24.5%	-21.6%
CCOc1ccc(OCC)c(NC(=O)C2CCN(S(=O)(=O)c3c(C)noc3/C=C/c3ccccc3F)CC2)c1	-7.7%[7.34 µM]	-5.7%[7.34 µM]
COC(=O)c1ccc(-c2noc(CN(C)CCC3CCCCO3)n2)cc1 (stereo not drawn)	-13.7%	-1.3%
CC(C)N(Cc1cc2ccccc2[nH]c1=O)C(=O)C(C)(C)C	·	1.1%
